# HSD17B inhib: HSD17B dehydrogenase inhibition; Potency, µM (titrated, usually from 57.1 µM), without a hit: top-dose activity change, negative = inhibition, most hits filed as inhibitors; Q99714; recombinant HSD17B10, NADH fluorescence kinetic; many of its hits are not listed in these tables; 75,000 compounds, 7.6% hits; active means well fitted inhibition curve with a large enough effect; inconclusive means small, poorly fitted or top-dose-only effect; inactive means no such curve, though single readings can be large or run the other way;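 further: the protocol describes HADH2 (HSD17B10) and not the HSD17B4 of the title; nearly all actives have a fitted effect of over 70% in size; most hits overshoot -100% by far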
#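 His-tagged E. coli-expressed HADH2 at 20 nM in 100 mM Tris-HCl pH 9.0 with 0.01 % Tween-20, preincubated 15 min with compound at room temperature. Reaction with 1 mM NAD+ and 90 uM beta-hydroxybutyryl coenzyme A; NADH fluorescence (360/450 nm) read kinetically over 4 min, last minus first point.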
# * hit, by the source's call; ? = inconclusive; [ ] = another dose, or the depositor's remark. On the % scale 0 is the no-effect control and ±100 the full control effect; potency means the concentration at half of the fitted maximal effect. The list is partial; count on the stated rates, not on these rows.
SMILES,HSD17B inhib
CCOc1ccc(N(CC(=O)Nc2ccc(F)c(F)c2)S(=O)(=O)c2c(C)noc2C)cc1,5%
COc1ccc(CCNC(=O)CSc2nnnn2Cc2ccc3c(c2)OCO3)cc1OC,2%
CCOC(=O)CSc1nc(N)cc(=O)[nH]1,8%
CCOc1cc(NC(=O)c2ccccn2)c(OCC)cc1NC(=O)CC(C)C,-6%
CN(C)C(=O)c1ccc(-c2ccc3ncnc(NC4CCNCC4)c3c2)cc1,25µM*
O=C(CCc1ccccc1)OCCN1CCOCC1,8%
CCCCCCN=CC1=C(O)CC(C)(C)CC1=O,4%
CCc1nnc(NC(=O)CSc2nnc(-c3ccccc3NC(=O)c3ccccc3)o2)s1,-1%
Cc1occc1-c1nc(-c2ccccn2)no1,5%
CCOC(=O)c1ccc(COC(=O)c2nonc2N)cc1,8%
N#Cc1nc(Cc2ccccc2)oc1N1CCN(c2ccccc2)CC1,-12%
COC(=O)C/C=C\[C@H](C)[C@@H](OCc1ccccc1Br)C(C)C,4%[11.4 µM]
COc1ccc2[nH]cc(CCNc3nc(-c4ccc(C(=O)N(C)C)cc4)nc4ccccc34)c2c1,-18%
CCCCOc1cccc(C(=O)O)c1,2%
CC(C(=O)c1ccccc1)n1cnc2ccccc2c1=O (stereo not drawn),5%
CC1CC[C@@]23CCC4(C)[C@@]5(C)CCC6C(C)(C)C(O)CC[C@@]6(C)C5C=C[C@@]4(OC2=O)C3C1C (stereo partly drawn),0%
CCN(CC)C1CC(=O)N(c2cccc(C)c2)C1=O (stereo not drawn),-23%
CCNS(=O)(=O)c1cc(S(C)(=O)=O)ccc1Cl,2%
COc1cccc(NC(=O)CSc2nnc(-c3cc(-c4ccccn4)nc4ccccc34)o2)c1,-4%
CCC(=O)Nc1nc(CC(=O)Nc2ccccc2)cs1,2%
CS(=O)(=O)Nc1ccc(C(=O)NC2CCCC2)cc1,4%
CCCOc1ccc(-c2cnc(SCC(N)=O)nc2N)cc1,-21%
O=C(NCC1CCCO1)c1ccc2c(c1)OCO2 (stereo not drawn),-7%
CCC1CCCCN1C(=O)Cn1c(C(=O)OC)cc2ccsc21 (stereo not drawn),-1%
Cc1ncc(CO)c(C=O)c1O,-12%
CNC(=O)[C@]1(C)C[C@H]1[C@H](NC(=O)[C@]1(C)C[C@H]1[C@H](NC(=O)OCc1ccccc1)c1ccccc1)c1ccccc1,-13%
O=C(NC1CC2CCCC(C1)N2C(=O)NC1CCCCC1)c1ccccc1 (stereo not drawn),4%
COc1ccc(CC[N@+]2(C)COc3cc4oc(=O)cc(C)c4cc3C2)cc1OC,11%[11.4 µM]
Cc1ccc(-c2nc3ncccc3o2)cc1NC(=O)Cc1ccc(Cl)cc1,-29%
COc1cc(C(=O)N(Cc2cc3ccccc3[nH]c2=O)CC2CCCO2)cc(OC)c1OC (stereo not drawn),-12%
CC(C)CO/N=C1/C[C@@H](O)[C@@H](O)[C@@H]2[C@@H]3C(=O)N(C4CCCCC4)C(=O)[C@H]3CC[C@H]12,-2%[11.4 µM]
CCCCC(=O)Nc1cccc(-c2nn3c(C)nnc3s2)c1,-9%
COc1cc2c(cc1OC)C(c1cccs1)NCC2 (stereo not drawn),4%
N/C(=N\c1nc2c(c(=O)[nH]1)CCCC2)Nc1ccccc1,8%
O=C(CC1Sc2ccccc2NC1=O)Nc1cccc(C(=O)O)c1 (stereo not drawn),-7%
CC1(C)CC(=O)C=C(Nc2cc(-c3ccccc3)[nH]n2)C1,1%
Cc1ccccc1C(=O)NC1CCN(Cc2nnnn2Cc2ccc(F)cc2)CC1,9%
Cc1cc(C)cc(OCc2nnc(SCC(=O)Nc3ccccc3)o2)c1,8%
N#CC1=C(N)OC2=C(C(=O)CCC2)C1C1C=CCCC1 (stereo not drawn),-1%
CC1(C)CC2CC(C)(CN2C(=O)CCCN2C(=O)c3ccccc3C2=O)C1 (stereo not drawn),1%
COc1ccc(-n2ncc3c(NCc4cccs4)ncnc32)cc1,32µM*
CSc1cccc(NC(=O)CSc2nnc(C)s2)c1,-2%
O=C(Cc1cc(=O)[nH]c(=O)[nH]1)N1CCC(Cc2ccccc2)CC1,?
O=C(NC12CC3CC(CC(C3)C1)C2)N1CCN(C(=O)C2CCCO2)CC1 (stereo not drawn),5%
CCCc1nc2c(C)cc(-c3nc4ccccc4n3C)cc2n1Cc1ccc(-c2ccccc2C(=O)O)cc1,32µM*
COc1nc(Nc2cccc(C(F)(F)F)c2)nc(OC)n1,4%
Nc1nc(Nc2cccc3ccccc23)nc(C2CCCC2=O)n1 (stereo not drawn),6%
CN/S(=N/S(=O)(=O)c1ccccc1)c1ccc(C)cc1 (stereo not drawn),3%

# Of the compounds above, these contain an aryl thioether with sulfur outside any ring:
SMILES,HSD17B inhib
COc1ccc(CCNC(=O)CSc2nnnn2Cc2ccc3c(c2)OCO3)cc1OC,2%
CCOC(=O)CSc1nc(N)cc(=O)[nH]1,8%
CCc1nnc(NC(=O)CSc2nnc(-c3ccccc3NC(=O)c3ccccc3)o2)s1,-1%
COc1cccc(NC(=O)CSc2nnc(-c3cc(-c4ccccn4)nc4ccccc34)o2)c1,-4%
CCCOc1ccc(-c2cnc(SCC(N)=O)nc2N)cc1,-21%
Cc1cc(C)cc(OCc2nnc(SCC(=O)Nc3ccccc3)o2)c1,8%
CSc1cccc(NC(=O)CSc2nnc(C)s2)c1,-2%

# Other results:
SMILES,HSD17B inhib
COc1ccc2nc(-c3ccccc3)[nH]c2c1,25µM*
Cc1ccc(C(=O)Nc2cccc(C(=O)NCc3ccco3)c2)cc1,4%
Cc1nnc(N(CCC#N)CCC#N)s1,-8%
O=C(COC(=O)c1ccc(S(=O)(=O)Nc2ccccc2)cc1)NCCN1C(=O)CSC1=O,-2%
CC(C)CC(NC(=O)COc1ccccc1)C(=O)O (stereo not drawn),13%
CC(=O)N1CCN(C(=O)COc2ccc(Br)cc2)CC1,5%
CS(=O)(=O)NCCSc1nnnn1-c1ccccc1,?
CC(=O)C1=C(O)C(=O)N(CCc2c[nH]c3ccccc23)C1c1ccc(O)cc1 (stereo not drawn),-15%
CCCN(S(=O)(=O)c1ccc(OCC)cc1)S(=O)(=O)c1cccs1,-20%
O=C(CSc1nc2ccccc2[nH]1)NCCN1CCCCC1,-4%
CCOC(=O)Cn1cnc2c(cnn2-c2ccc(Cl)cc2)c1=O,?
CCn1nc(C(=O)OCC(=O)c2c[nH]c3ccccc23)c2ccccc2c1=O,-19%

# Overlap with the part before: 6 entries, then new ones.
SMILES,HSD17B inhib
CS(=O)(=O)NCCSc1nnnn1-c1ccccc1,?
CC(=O)C1=C(O)C(=O)N(CCc2c[nH]c3ccccc23)C1c1ccc(O)cc1 (stereo not drawn),-15%
CCCN(S(=O)(=O)c1ccc(OCC)cc1)S(=O)(=O)c1cccs1,-20%
O=C(CSc1nc2ccccc2[nH]1)NCCN1CCCCC1,-4%
CCOC(=O)Cn1cnc2c(cnn2-c2ccc(Cl)cc2)c1=O,?
CCn1nc(C(=O)OCC(=O)c2c[nH]c3ccccc23)c2ccccc2c1=O,-19%
Cc1ccc2c(COC(=O)c3cnc(C)cn3)cc(=O)oc2c1,1%
Nc1cc(=O)[nH]c(SCCNS(=O)(=O)c2ccccc2)n1,-3%
CC(=O)N=c1sc2ccccc2n1C,1%
O=S(=O)(O)CCN1CCOCC1,2%
O=C(COC(=O)c1cccs1)c1ccc2c(c1)OCCO2,8%
O=C1CC(N2CCCN(C3CC(=O)N(c4ccc(F)cc4)C3=O)CC2)C(=O)N1c1ccc(F)cc1 (stereo not drawn),-3%
O=C(CCCC(=O)N1CCc2ccccc21)N1CCc2ccccc21,8%
O=C(O)c1coc2ccccc12,15%
CCOC(=O)CNC(=O)c1c2c(nc3ccccc13)CCCC2,9%
CC(C)CCn1c(N)c(S(=O)(=O)c2cccs2)c2nc3ccccc3nc21,3.2µM*
COc1ccc(C)cc1S(=O)(=O)N1CCN(c2cccc(C(F)(F)F)c2)CC1,?
O=C(O)COc1cccc(NC(=O)C2CCCO2)c1 (stereo not drawn),3%
CCOC(=O)C1=C(c2ccccc2)NC(SCC(=O)NC2CCCCC2)=C(C#N)C1c1ccco1 (stereo not drawn),?
O=C(COC(=O)C1c2ccccc2Oc2ccccc21)Nc1ccc2c(c1)OCO2,0%
CCN1CCN(/C=N/c2nc(C)cs2)CC1,6%
CC(=O)c1cccc(NC(=O)N[C@@H](CC(C)C)C(=O)O)c1,17%
CCOC(=O)c1sc(=S)n2c1[nH]c(=O)c1ccc(C(=O)OC)cc12,20µM*
CS(=O)(=O)N1CCC2(CCN(Cc3nccs3)CC2)CC1,-2%
Cc1ccc(N=C(c2cccs2)N2CCOCC2)cc1,-6%
Cc1nc(SCC(=O)Nc2c(C)n(C)n(-c3ccccc3)c2=O)[nH]c(=O)c1Cc1ccccc1,1%
Fc1ccc(Cc2nnc(-c3cccs3)o2)cc1,6%
O=C(COC(=O)Cc1cn2ccsc2n1)NC12CC3CC(CC(C3)C1)C2,8%
O=C(CCC1CCCCC1)NCc1ccncc1,0%
Cc1cc2c3c(c1C)C1(C(=O)N3C(C)(C)CC2C)C(C#N)=C(N)Oc2n[nH]c(C)c21 (stereo not drawn),1%
CCc1cc2c(=O)c(-c3ccon3)c(N)oc2cc1OC,3%
COc1ccc(N(CC(=O)NCc2ccccc2)S(=O)(=O)c2c(C)noc2C)cc1,-1%
Cc1cc(NC(=O)COC(=O)c2n[nH]c3ccccc23)no1,25µM*
CCOC(=O)c1c(C)nc(-c2ccccc2)nc1NC(=O)CC,7%
COc1ccc(-c2cc3nc4c(c(=O)n3[nH]2)CCC4)cc1,13µM*
N#Cc1nc(-c2cccs2)oc1NCCCN1CCOCC1,32µM*
c1ccc(OCCCn2nnc(-c3ccncc3)n2)cc1,-5%
CC1(C)CC(=O)C2=C(C1)OC(N)=C(C#N)C2c1ccccc1 (stereo not drawn),-2%
Cc1cc(Nc2ccc(F)cc2)n2nc(C)nc2n1,9%
CCC(O)C(C)(C)C (stereo not drawn),1%
O=C(CSc1nnnn1-c1cccc2ccccc12)N1CCOCC1,-3%
CC(C)(C)NC(=O)c1ccc2c(c1)C(=O)N(C1CCCCC1)C2=O,3%
CNc1nc(-c2ccc(C(=O)N(C)C)cc2)nc2ccccc12,-11%
CCc1nnc(NC(=O)c2ccc(S(=O)(=O)N3CCOCC3)cc2)s1,-3%
CCC1CCCCN1C(=O)CSc1nnc(-c2ccco2)o1 (stereo not drawn),0%
CN(C)c1ccc(NC(=O)Nc2cccc(Cl)c2)cc1,-8%
O=C(NCc1ccco1)c1cc2n(n1)C(C(F)(F)F)CC(c1ccc(Cl)c(Cl)c1)N2 (stereo not drawn),0%
CCN(CC)C(=O)CSc1nc2ccccc2c(=O)n1-c1cccc(OC)c1,2%
CCOC(=O)C(C)(C)Sc1nc2c(cnn2-c2ccc(C)cc2)c(=O)[nH]1,5%
Cc1nccn1CCC(=O)O,3%
Cc1[nH]c(C)c2c(=O)n(-c3ccccc3)ncc12,2%
Cc1cc(NC(=O)CSc2nc(-c3ccccc3)c(C#N)c(=O)[nH]2)no1,-1%
O=C1CS/C(=C/C(=O)c2ccccc2)N1,-6%
COCCn1c(SCC(=O)c2[nH]c(C)c(C(C)=O)c2C)nc2ccccc21,-12%
Cc1cc(C)nc(N2CCCC(C(=O)Nc3ccc4c(c3)OCO4)C2)n1 (stereo not drawn),9%
O=C(Cn1nc(-c2ccccc2)c2ccccc2c1=O)Nc1ccccn1,1%
Cc1cc(C(=O)OCC(=O)N2CCN(C(=O)c3ccco3)CC2)c(C)n1-c1ccc(F)cc1,6%
CCNCCNC(=O)c1c(O)c2cccc3c2n(c1=O)CCC3,-24%
CC(C)CCn1c(N2CCC(C(N)=O)CC2)nc2c1c(=O)[nH]c(=O)n2C,8%
COc1ccc(OCC(=O)Nc2ccccc2OC(F)F)cc1,-4%
CCCOC(=O)c1ccc(-n2nnnc2SCC(=O)N2CCCCC2)cc1,5%
CC1(C)CC(=O)C=C(NCc2cccs2)C1,-8%
O=C(O)CCc1ccc(-c2ccc(F)cc2)n1Cc1ccco1,?
CCOC(=O)N1CCC(NC(=O)C2CCN(c3ccc(N4CCOCC4)nn3)CC2)CC1,13µM*
CCC(NC(=O)c1ccccc1NC(=O)c1ccccc1)C(=O)O (stereo not drawn),1%
CC(C)(C)c1cc(NS(=O)(=O)c2ccc3c(c2)OCCO3)on1,0%

# (more compounds)
SMILES,HSD17B inhib
COc1ccccc1NC(=O)Cn1c(=O)oc2ccccc21,4%
Cc1ccc(N=Nc2ccc(N)cc2C)c(S(N)(=O)=O)c1,-6%[11.4 µM]
CC1(C)Cc2c(C#N)c(SCc3ccccc3)nc(N3CCOCC3)c2CO1,-16%
CC(=O)c1cccc(NC(=O)N2C3CCC2CC(O)(c2cccnc2)C3)c1 (stereo not drawn),-4%
CCn1c(=O)c(C(=O)NCCCO)c(O)c2ccccc21,3%
O=C(CSc1nc2ccccc2c(=O)n1Cc1ccco1)N1CCN(c2ccccc2)CC1,?
COC(=O)NC(c1ccc2ccccc2c1)C(C(C)=O)C(=O)OC (stereo not drawn),6%[11.4 µM]
O=C(Cc1ccccc1)Nc1nnc(-c2ccco2)s1,?
CCOC(=O)c1oc2cc(O)ccc2c(=O)c1-c1csc(C)n1,2%
O=C(O)C1CCCN(S(=O)(=O)c2ccc(F)cc2)C1 (stereo not drawn),0%
CCS(=O)(=O)c1ccc(S(=O)(=O)CC)s1,-6%
COc1ccc(N2C(=O)CC(NCc3ccncc3)C2=O)cc1 (stereo not drawn),9%
CN1CCN(S(=O)(=O)c2ccc(N)cc2)CC1,7%
Cc1cccc(OCc2nnc(SCC(=O)c3ccccc3)o2)c1,-12%
